AmpC nodet inh: inhibitors of E. coli AmpC beta-lactamase without detergent; AmpC nitrocefin hydrolysis, absorbance 480 nm, no detergent; potencies from a single point are estimates; Potency, µM (series often up to 28.7 µM), for the others: at the top dose activity change, negative = inhibition; 1.8% of 71,000 active; AID 585; active = falling curve, for most hits resting on a single point; inconclusive = weak or doubtful change; inactive = flat or rising curve; note: % of control where 0% means no effect; about half of the hits show no inhibition at the top dose; a quarter of the inactives give rising signals
Target sequence (P00811 whole entry, looked up): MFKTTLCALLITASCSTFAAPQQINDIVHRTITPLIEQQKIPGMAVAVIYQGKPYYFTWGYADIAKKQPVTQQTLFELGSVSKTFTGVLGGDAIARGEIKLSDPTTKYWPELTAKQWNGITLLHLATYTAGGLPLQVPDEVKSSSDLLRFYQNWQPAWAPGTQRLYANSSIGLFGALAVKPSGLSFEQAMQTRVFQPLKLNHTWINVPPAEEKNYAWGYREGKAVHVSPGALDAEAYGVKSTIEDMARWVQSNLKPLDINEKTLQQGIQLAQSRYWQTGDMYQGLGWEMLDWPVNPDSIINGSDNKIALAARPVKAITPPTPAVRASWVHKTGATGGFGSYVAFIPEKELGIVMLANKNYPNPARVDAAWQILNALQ
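Enzyme, pH 7.0 phosphate. Compound titrations were pre-incubated with AmpC for 15 min at room temperature before nitrocefin (stock 800 uM) addition; product formation was recorded at 480 nm every 20 s for 4 min.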
Numbers without * were called inactive; [ ] = dose if it differs, or a comment. Potency is the fitted concentration of half-maximal effect.

SMILES | AmpC nodet inh
O=C(NCCc1ccc(Cl)cc1)C1CC(=O)N(C2CCCCC2)C1 (stereo unspecified) | 90%
Cc1cccc(-n2nnnc2SCn2nnc3ccccc3c2=O)c1 | 4%
O=C(O)CCCCCNS(=O)(=O)c1c(Cl)cccc1Cl | 6%
CC(=O)n1c2ccccc2c2nc(NC(C)C)sc21 | 15%
CCCc1ccc(C(=O)CCC(=O)O)cc1 | -2%
O=C(Nc1ccccc1)NC1(C(=O)NCc2ccc3c(c2)OCO3)CCCCC1 | 3%
Cc1cc(NC(=O)c2cnn3c(C(F)F)cc(C4CC4)nc23)no1 | 11%
COc1cc(-c2nnc(-c3ccncc3)o2)ccc1OCc1ccccc1 | 148%
O=C(NCCN1CCOCC1)c1ccccc1-c1ccccc1 | -4%
COCCNC(=O)c1ccccc1NC(=O)CN(c1ccc2c(c1)OCO2)S(C)(=O)=O | -2%
CCOc1ccc2nc(-c3ccccc3)[nH]c2c1 | -24%
COc1ccccc1CN1CCCC2(CCN(C(=O)c3csnn3)CC2)C1 | 17%
Cc1ccc(CN2C(=O)CCC2C(=O)NCCN2CCOCC2)cc1 (stereo unspecified) | 0%
COC(=O)c1c[nH]n2c(=O)cc(C)nc12 | 10%
CCc1sc(NS(C)(=O)=O)nc1-c1ccccc1 | 12%
Cc1oc(-c2ccc(Cl)cc2)nc1CS(=O)CC(=O)N1CCC2(CC1)OCCO2 (stereo unspecified) | 92%
O=C(Cn1[nH]c(=O)c2ccccc2c1=O)OCC(=O)N1CCc2ccccc2C1 | 25%
CCCCCCC[N+](CC)(CC)CCCCc1ccc(Cl)cc1 | 65%[12.8 µM]
COc1ccc(CC/C(=N\O)C2(O)CCCCC2)cc1 | -1%
COC(=O)[C@@]1(Cc2ccc(OC)cc2)[C@H]2c3cc(C(=O)N4CCCC4)n(CCN4CNCC4=O)c3C[C@H]2CN1C(=O)c1ccccc1 | 164%
COc1ccc2nc(C)cc(SCC(=O)O)c2c1 | -7%
CC(C)(C)c1cnnn1-c1ccc(NC(=O)c2ccc3c(c2)OCO3)cc1 | 12%
Clc1ccccc1NN(Cc1ccccn1)c1ccccc1Cl | -1%[5.75 µM]
c1ccc(-c2noc(-c3cccc4ccccc34)n2)cc1 | -13%
O=C(CCSc1ccccc1)N1CCN(C(=O)c2ccco2)CC1 | 20%
Cc1cnn(C(=S)NCCc2ccccc2)c1 | -12%
COc1ccc(CNc2cc(-c3ccccc3C)ncn2)c(OC)c1 | 40%
CCN1C[C@]2(C)CC[C@@H](O)[C@]34[C@@H]5CC6[C@@H](OC)C[C@@](O)([C@H]5[C@@H]6O)[C@@H](C[C@@H]23)[C@H]14 | 4%
CCn1c(SCC(=O)Nc2cc(C)on2)nnc1-c1cccnc1 | -7%
CC(C)C[C@@H](CC(=O)N[C@@H](CCCN)CC(=O)N[C@@H]1CCNC[C@H]1C(=O)N[C@H](CC(=O)N[C@@H](CCC(=O)O)CC(=O)O)Cc1c[nH]c2ccccc12)NC(=O)[C@@H]1CNCC[C@H]1N | 38%
CCCn1c(C)nc2c(N(CCOC)CCOC)nc(C)nc21 | 24%
O=C(Nc1ccc2c(c1)OCCO2)C1CCCN(S(=O)(=O)Cc2ccccc2)C1 (stereo unspecified) | 1%
COc1ccc(-n2nnc3c(=O)n(CC(=O)N4CCCCC4)cnc32)cc1 | 8%
Cc1ccsc1C(=O)OCC(=O)N1CCOCC1 | -6%
O=C(NCc1ccco1)C(C(=O)c1ccccc1)n1ccccc1=O (stereo unspecified) | -5%
Cc1ccccc1Nc1nc(N)nc(COC(=O)c2cccn2C)n1 | 28%
CC(=O)Nc1ccc(N(C(=O)c2cnccn2)C(C(=O)NC2CCCCC2)c2ccc(O)cc2)cc1 (stereo unspecified) | 23%
Cc1ccc(Oc2ccccc2)c(NC=O)c1 | 5%
c1ccc2c[n+](Cc3ccnc4ccccc34)ccc2c1 | -3%[5.75 µM]
O=C(CNS(=O)(=O)c1ccc(F)cc1)N1CCN(c2ccc(F)cc2)CC1 | 16%
CC1(C)OC(=O)NC1=O | 0%[12.8 µM]
COc1cc(C2c3c(oc4c(C)cc(C)cc4c3=O)C(=O)N2Cc2cccnc2)ccc1O (stereo unspecified) | 99%
Cc1ccsc1C(=O)N1CC(=O)Nc2ccccc21 | 4%
CCC(c1nnnn1Cc1ccccc1)N1CCN(C(=O)c2ccco2)CC1 (stereo unspecified) | 28%
COc1ccccc1CNC(=O)C1CCN(S(=O)(=O)c2cccc3cccnc23)CC1 | 12%
O=P1(NCCCl)OCCCN1CCCl (stereo unspecified) | 4%[12.8 µM]
COc1ccc(NC(=O)COc2ccccc2C#N)c(S(=O)(=O)N2CCCCC2)c1 | 8%
Oc1ccc(Br)cc1-c1nc2cnccn2c1NC1CCCC1 | 14%
CCCn1c(=O)n(C)c(=O)c2c3oc(=O)c(NC(=O)c4ccc(F)cc4)cc3[nH]c21 | -10%
CS(=O)(=O)c1ccc(Cl)c(NC(=O)C2CC(=O)N(Cc3ccccc3)C2)c1 (stereo unspecified) | 19%

Looked up above.
COc1cc(C2c3c(oc4c(C)cc(C)cc4c3=O)C(=O)N2Cc2cccnc2)ccc1O (stereo unspecified) | AmpC nodet inh = 99%
Cc1ccsc1C(=O)N1CC(=O)Nc2ccccc21 | AmpC nodet inh = 4%
COc1ccc(NC(=O)COc2ccccc2C#N)c(S(=O)(=O)N2CCCCC2)c1 | AmpC nodet inh = 8%
CCCn1c(=O)n(C)c(=O)c2c3oc(=O)c(NC(=O)c4ccc(F)cc4)cc3[nH]c21 | AmpC nodet inh = -10%
O=P1(NCCCl)OCCCN1CCCl (stereo unspecified) | AmpC nodet inh = 4%[12.8 µM]
CCC(c1nnnn1Cc1ccccc1)N1CCN(C(=O)c2ccco2)CC1 (stereo unspecified) | AmpC nodet inh = 28%

Entries shown so far that contain an aryl thioether with sulfur outside any ring, in the order listed:
SMILES | AmpC nodet inh
Cc1cccc(-n2nnnc2SCn2nnc3ccccc3c2=O)c1 | 4%
COc1ccc2nc(C)cc(SCC(=O)O)c2c1 | -7%
O=C(CCSc1ccccc1)N1CCN(C(=O)c2ccco2)CC1 | 20%
CCn1c(SCC(=O)Nc2cc(C)on2)nnc1-c1cccnc1 | -7%

Continued.
SMILES | AmpC nodet inh
CC(C)CCNC(=O)NC(=O)CSc1nnc(COc2ccccc2Cl)o1 | 16%
O=C1C[C@@H]2OCC=C3CN4CC[C@]56c7ccccc7N1[C@H]5[C@@H]2[C@H]3C[C@@H]46 | -9%
COCCN1C(=O)c2ccccc2C(C(=O)NCC2CCCO2)C1c1c[nH]c2ccccc12 (stereo unspecified) | 55%
O=S(=O)(c1cc(Cl)ccc1Br)N1CCOCC1 | 2%
COc1ccc(-c2nnn(CC(=O)c3c[nH]c4ccccc34)n2)cc1OC | 36%
COC(=O)c1[nH]nc2c1C(=O)N(C1CCCCC1)C2=O | 0%
CC1CC(C)CN(CCCNC(=O)COc2cc(=O)n(C)c3ccccc23)C1 (stereo unspecified) | -11%
Cn1cnnc1SCC(=O)c1ccco1 | -1%
Cc1cc(C(=O)Nc2cc(C)n(Cc3ccc(Cl)cc3)n2)no1 | 18%
N#Cc1cccc(-c2cc(NCc3ccccc3)ncn2)c1 | 13%
O=C(O)C[C@H](NC(=O)CP(=O)(O)O)C(=O)O.[NH-][C@@H]1CCCC[C@@H]1[NH-].[Pt] | -6%[5.75 µM]
CC/C(=N\O)c1ccc(O)c(OC)c1 | 3%
COc1cc2c(cc1OC)CN(C(=O)c1cccs1)CC2 | 5%
CC1CCCC(NC(=O)Cn2cc3c(n2)CCCCC3)C1C (stereo unspecified) | 25%
c1ccc2c(N3CCNCC3)cccc2c1 | -1%
CC(=O)Nc1ccc(S(=O)(=O)N2CCN(CCCOc3cc(C)ccc3C)CC2)cc1 | 123%
CCCS(=O)(=O)N1CCC(C(=O)N2CCN(C(=O)OCC)CC2)CC1 | 9%
CCSc1nc(O)c(C2OC(=O)c3c2ccc(OC)c3OC)c(=O)n1CC (stereo unspecified) | -4%
Cc1cc(C)n(-c2nc3c(c(=O)[nH]c(=O)n3C)n2CC(O)c2ccccc2)n1 (stereo unspecified) | 1%
O=S(=O)(c1ccccc1)N1CCN(Cc2ccccc2C(F)(F)F)CC1 | 9%
COc1ccccc1-c1ccc2ncnc(Nc3ccccc3)c2c1 | 51%
CC(C)N1C(=O)c2ccccc2C1C(=O)NC1CCCCCC1 (stereo unspecified) | -4%
Cc1occc1-c1nnc(SCC(=O)Nc2ccccc2)n1CCc1ccccc1 | 33%
COc1ccc(C(c2nnnn2Cc2ccccc2)N2CCN(c3ccccc3)CC2)cc1 (stereo unspecified) | 24%
Cc1nc2cc(CO)ccc2n1C | 1%
CCn1c(SCC(=O)NC2CCCCC2)nnc1-c1cccs1 | 12%
CC(C)n1c(SCC(=O)N2CCCC2)nc2c1c(=O)n(C)c(=O)n2C | 7%
FC(F)(F)c1cccc(-c2nc3nc(Cl)c(Cl)nc3[nH]2)c1 | -10%[5.75 µM]
COc1cccc(C(=O)Nc2ncc3c(n2)CC(C)(C)CC3=O)c1 | 8%
CCc1c(C)sc(NC(=O)CC#N)c1C#N | -5%

Part of the list above in order of number of heavy atoms, ascending.
SMILES | AmpC nodet inh
O=C(O)CCCCCNS(=O)(=O)c1c(Cl)cccc1Cl | 6%
COc1cc(-c2nnc(-c3ccncc3)o2)ccc1OCc1ccccc1 | 148%
Cc1oc(-c2ccc(Cl)cc2)nc1CS(=O)CC(=O)N1CCC2(CC1)OCCO2 (stereo unspecified) | 92%

(cont.)
SMILES | AmpC nodet inh
CN1CCc2c(sc3c2C(=O)NC(c2ccc(-c4cccc(Cl)c4)o2)N3)C1 (stereo unspecified) | 76%
Cc1oc(-c2ccc(Cl)cc2)nc1CN1CCC(C(=O)N2CCN(Cc3ccccc3)CC2)CC1 | 123%
O=C(O)CCc1nc(-c2ccc(Cl)cc2)no1 | -3%
COc1cccc(NS(=O)(=O)c2ccc3[nH]cc(C(=O)NCCN4CCOCC4)c(=O)c3c2)c1 | 52%
O=S(=O)(NCc1cccs1)c1cccc(S(=O)(=O)N2CCCCC2)c1 | -17%
COc1ccccc1-c1ccc2ncnc(N3CCN(C)CC3)c2c1 | 154%
Cc1cccc(-n2nnc(C(=O)N3CCc4ccccc4C3)c2N)c1 | 25%
CCn1c(Oc2ccc(Oc3ncc(Cl)cc3Cl)cc2)nc2c1c(=O)n(C)c(=O)n2C | 34%
CCS(=O)(=O)N1CCC(C(=O)NCCN2CCN(Cc3ccccc3)CC2)CC1 | -7%
CC1Cc2ccccc2N1C(=O)Cn1c(=O)oc2cc(S(=O)(=O)N3CCCCC3)ccc21 (stereo unspecified) | 43%
CC(C)CCn1c(SCCc2ccccc2)nc2c1c(=O)[nH]c(=O)n2C | 20%
CCCS(=O)(=O)N1CCN(C(=O)c2ccc(-c3ccccc3)cc2)CC1 | 98%
CC(C)(N=NC(C)(C)C1=NCCN1)C1=NCCN1 | 1%[5.75 µM]
COc1cc(C(=O)Nc2nnc(CC(=O)N3CCOCC3)s2)cc(OC)c1OC | -4%
O=C(O)CSc1sc(=S)sc1SCC(=O)O | -15%
Cc1ccc(OCc2nnc(SCCN3CCOCC3)n2C)cc1 | 38%
Cc1sc2ncn(CCC(=O)O)c(=O)c2c1C | -11%
COc1ccc(OC)c(NC(=O)CSc2nnc(Cn3c(=O)sc4ccccc43)n2C)c1 | 74%
CCOC(=O)/C(C(N)=NCCO)=C(/O)c1ccccc1 | 4%
CS(=O)(=O)N(CC(=O)NC1CCCCCC1)Cc1ccccc1 | 47%
Cc1cc(=O)oc(C)c1C(=O)NCCCN1C(C)CCCC1C (stereo unspecified) | -3%
Cc1nnc(SCC(=O)NC(=O)NC(C)(C)C)n1N | -9%
NC(=O)c1c(NC(=O)CN2CCCC2)sc2c1CCCC2 | 16%
Cc1ccc(C(C)(C)C)cc1 | -8%

This is a subset; rates above refer to the full screens.
